High-throughput results as filed in PubChem.
VDR inh: Inhibitors of the vitamin D receptor (VDR): qHTS. 0.93% of 400,000 active. VDR-SRC2-3 peptide fluorescence polarization, 2 h. AID 504847, 2011. Potency, µM, inactives show max response, negative = inhibition, hits mostly inhibitors; active = well fitted inhibition curve with a large enough effect; inconclusive = small, poorly fitted or top-dose-only effect, or another doubt; inactive = no such curve, though single readings can be large or run the other way; note: series mostly up to about 120 µM
Target sequence (P11473 whole entry, looked up): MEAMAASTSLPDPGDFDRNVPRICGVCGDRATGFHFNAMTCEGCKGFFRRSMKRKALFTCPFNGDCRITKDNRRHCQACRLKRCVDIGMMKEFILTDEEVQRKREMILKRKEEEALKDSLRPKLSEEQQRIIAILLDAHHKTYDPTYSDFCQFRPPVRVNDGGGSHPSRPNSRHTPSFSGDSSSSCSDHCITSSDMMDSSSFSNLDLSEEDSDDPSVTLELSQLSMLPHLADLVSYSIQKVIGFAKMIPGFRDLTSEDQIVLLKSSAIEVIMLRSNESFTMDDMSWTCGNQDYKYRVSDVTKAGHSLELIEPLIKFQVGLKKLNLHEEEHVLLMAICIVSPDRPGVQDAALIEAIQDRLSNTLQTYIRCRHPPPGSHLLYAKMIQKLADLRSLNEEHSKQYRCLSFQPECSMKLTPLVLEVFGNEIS
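VDR–SRC2-3 interaction, FP format. Cmpds 23 nl via pintool, brief spin, 2 h ambient incubation.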
* hit, by the source's call; u = inconclusive; & = joins results of further samples. % is set by controls: 0 for no effect and ±100 for the full control effect; potency is the fitted concentration of half-maximal effect.

VDR inh,Molecule
3.0%,COC(=O)c1c(N)n(CCCN2CCOCC2)c2nc3ccccc3nc12
-25.0%,N#Cc1ccc(C(c2nnnn2Cc2ccccc2)N2CCCC2)cc1 (stereo not drawn)
-3.8%,CCOc1cc2[nH]c(=S)n(CCCN3CCN(C)CC3)c(=O)c2cc1OCC
2.4%,C=C(C)CN(CC)C(=O)c1ccc(OC2CCN(S(=O)(=O)N(C)C)CC2)cc1
-6.8%,Cc1ccc(-c2nnc(NC(=O)c3ccco3)o2)c(C)c1
5.7%,O=C(O)CSc1nnc(Cc2ccccc2)n1-c1ccccc1
11.5%,COc1ccc(NC(=O)/C=C/C(=O)O)c([N+](=O)[O-])c1
0.6%,Cc1nc(-c2ccccc2)c(-c2ccncc2)o1
-2.3%,COCCn1c(SCC(=O)Nc2cccc(OC)c2)nnc1-c1ccccc1
-13.8%,CCc1ccccc1NNC(=O)c1sccc1Cl

Four compounds out of the list, sorted by molar mass, highest first:
VDR inh,Molecule
-2.3%,COCCn1c(SCC(=O)Nc2cccc(OC)c2)nnc1-c1ccccc1
5.7%,O=C(O)CSc1nnc(Cc2ccccc2)n1-c1ccccc1
-13.8%,CCc1ccccc1NNC(=O)c1sccc1Cl
11.5%,COc1ccc(NC(=O)/C=C/C(=O)O)c([N+](=O)[O-])c1

The list continues.
VDR inh,Molecule
4.1%,O=C(CSC1=Nc2ccccc2C2=NC(Cc3ccccc3)C(=O)N12)Nc1cccc(Cl)c1 (stereo not drawn)
-9.3%,O=C(CNS(=O)(=O)c1cccc(Cl)c1)Nc1ccc(-c2nc3ccccc3s2)cc1
-3.4%,CC(C)N(Cc1nc(-c2ccccc2)no1)C(=O)c1ccc([N+](=O)[O-])cc1
1.5%,Cn1cc(CN2CCC(n3nccc3NC(=O)c3ccccc3Cl)CC2)c2ccccc21
-22.0%,Cc1ccccc1OCCNC(=O)CSc1ccc(C(F)(F)F)cc1[N+](=O)[O-]
-6.6%,Cc1ccc(NC(=O)c2nc[nH]c2C(=O)N2CCOCC2)c(C(=O)c2ccccc2)c1
3.8%,COc1ccc2[nH]c3c(=O)n4c(nc3c2c1)SCC4
-16.8%,CC(NC(=O)COC(=O)CN1C(=O)NC2(CCCC2)C1=O)c1ccc(F)cc1 (stereo not drawn)
0.4%,Nc1nnc(SCC(=O)OCc2ccc(Cl)c(Cl)c2)s1
-2.3%,CCN(C(=O)Cn1c(SCc2ccccc2F)nc2cccnc21)c1ccccc1

(cont.)
VDR inh,Molecule
-4.6%,Cn1c(=O)c2cc(C(=O)NCCCN3CCN(c4ccc(F)cc4)CC3)sc2c2ccccc21
-14.7%,COc1ccc(OC)c(-n2c(-c3cc(-c4ccccc4)n[nH]3)n[nH]c2=S)c1
-17.6%,O=c1cc(-c2ccccc2)[nH]c2cc(F)ccc12
-6.6%,Cc1ccc(C(=O)NCCc2ccccc2)cc1N1CCCC1=O
7.7%,COc1ccc(NC(=O)CN2CCN(C(C)=O)CC2)cc1S(=O)(=O)N1CCOCC1
9.2%,COc1ccccc1N1CCN(C[C@@H]2CN3C(=O)N(C)c4ccccc4C3=N2)CC1
-15.7%,CCCCC(c1nnnn1CCOC)N1CCN(CC)CC1 (stereo not drawn)
10.4%,CCOc1ccc(-c2[nH]ncc2-c2ccc(Cl)cc2)c(O)c1
-15.4%,CC(=O)N1CCN(C(=S)c2cccc([N+](=O)[O-])c2)CC1
13.1%,O=C(Nc1cccc(-c2csc(Nc3ccccc3)n2)c1)c1cc([N+](=O)[O-])cc(C(F)(F)F)c1

Going on with the list:
VDR inh,Molecule
25.6%,Cc1ccc(O)c(NC(=O)c2cc(-c3ccco3)on2)c1
-10.1%,COc1cc(/C=N\NC(=O)c2ccc(C)nc2)ccc1OC(=O)c1cccc(F)c1
-24.4%,CCOC(=S)N/C(=N\S(C)(=O)=O)c1ccccc1
-0.9%,CCOC(=O)C1(Cc2ccccc2C)CCCN(C(=O)c2ccc(OC)o2)C1 (stereo not drawn)
-0.1%,Cc1ccc(C)c(OCCCC(=O)O)c1
-11.6%,CN(C(=O)/C(N=Nc1cccc(C(F)(F)F)c1)=C(\O)C(F)(F)F)c1ccccc1
9.1%,CC(C)N(C(=O)C1CC(=O)OC12CCCCC2)C(C)C (stereo not drawn)
-10.4%,Cc1csc(=O)n1CCC(=O)OC(C)C(=O)NCc1ccccc1 (stereo not drawn)
9.1%,O=C(COc1ccc(F)cc1)NCc1ccc2c(c1)CCN2C(=O)c1ccccc1
-10.4%,Oc1ccc(/C=N/Nc2cc(N3CCOCC3)nc(N3CCOCC3)n2)cc1

Other results:
VDR inh,Molecule
14.9%,CCOc1cc2[nH]c(=S)n(Cc3ccc(C(=O)NCC(OC)OC)cc3)c(=O)c2cc1OCC
1.5%,CCOc1ccc(CN2CCC(n3nccc3NC(=O)CCCc3ccccc3)CC2)cc1
9.0%,CC[C@@H](C)[C@H](NC(=O)OCc1ccccc1)c1nnc([C@@H](NC(=O)OCc2ccccc2)[C@@H](C)CC)o1
2.7%,Cc1ccc(C(=O)CCNc2ccc(F)c(Cl)c2)o1
u,C=CCNc1nc(Cl)nc(Nc2cc(Cl)ccc2OC)n1
-17.5%,CCC1CCCCN1CCCNC(=O)C1CCN(S(=O)(=O)N2CCC3(CC2)OCCO3)CC1 (stereo not drawn)
21.0%,S=C(c1cn(Cc2ccccc2)c2ccccc12)N1CCOCC1
-5.5%,O=S(=O)(NC1CC1)c1ccc(S(=O)(=O)N2CCC3(CC2)OCCO3)cc1
u,Cc1nn(C(=O)c2ccco2)c(C)c1CN1C(=O)c2ccccc2C1=O
-3.2%,COc1c2c(nc3occc13)C(CC=C(C)C)(OC)C(O)CC2 (stereo not drawn)

Additional compounds follow.
VDR inh,Molecule
8.4%,COc1cc(C(Nc2ccc(S(=O)(=O)NCC3CCCO3)cc2)C(=O)NC(C)(C)C)cc(OC)c1OC (stereo not drawn)
-0.8%,COc1ccc(-c2sc3ccccc3c2-c2ccc(OCCN3CCCCC3)cc2)cc1
-14.0%,Cc1ccnc(NC(=O)/C=C/c2cccs2)c1
-23.6%,CCN(CC(=O)Nc1ccc(NC(C)=O)cc1)C(=O)/C=C/c1ccccc1
10.0%,N#Cc1ccc(NC(=O)CN2C(=O)NC3(CCCC3)C2=O)cc1
-3.9%,Cn1cnc(C(F)(F)F)c1-c1ccc([N+](=O)[O-])cc1
-4.3%,Cc1nc2cc3nc(C(F)(F)F)[nH]c3cc2[nH]1
3.8%,O=C(NC1CCCCC1)c1cc(S(=O)(=O)N2CCOCC2)c(Cl)cc1Cl
13.6%,CCOC(=O)c1cc(-c2ccccc2)n(CCC(=O)Nc2ccc(C(F)(F)F)cc2)c1C
-24.8%,CS(=O)(=O)N1CCN(c2ccc(NC(=O)COc3ccccc3[N+](=O)[O-])cc2)CC1

Part of the list above, field by field.
> COC(=O)c1c(N)n(CCCN2CCOCC2)c2nc3ccccc3nc12
  VDR inh = 3.0%

> N#Cc1ccc(C(c2nnnn2Cc2ccccc2)N2CCCC2)cc1 (stereo not drawn)
  VDR inh = -25.0%

> CCOc1cc2[nH]c(=S)n(CCCN3CCN(C)CC3)c(=O)c2cc1OCC
  VDR inh = -3.8%

> C=C(C)CN(CC)C(=O)c1ccc(OC2CCN(S(=O)(=O)N(C)C)CC2)cc1
  VDR inh = 2.4%

Further structures follow.
VDR inh,Molecule
6.9%,CC(C)N(Cc1nc(-c2ccccc2)no1)C(=O)CN(C)S(=O)(=O)c1ccc(Br)cc1
5.0%,COc1cc(SC)ccc1C(=O)N(C)CC(=O)Nc1cccc2ccccc12
11.5%,CCCCNC(=O)C1=CC(c2ccc3c(c2)OCO3)=NS(=O)(=O)N1C
2.5%,Cc1c(C(=O)N2CCCCC2)c(S(=O)(=O)N2CCN(c3ccc(Cl)cc3)CC2)c(C)n1C
-2.4%,CCN(C(=O)CSc1nc2ccc([N+](=O)[O-])cc2s1)C1CCS(=O)(=O)C1 (stereo not drawn)
-1.9%,O=C(NCc1ccccc1)C1CCC(=O)N(CCCN2CCCC2=O)C1 (stereo not drawn)
2.3%,COCc1nnc(NC(=O)CC(C)c2ccccc2)s1 (stereo not drawn)
-5.7%,O=C(NCc1ccco1)c1cccn2c(=O)c3sccc3nc12
6.5%,OCCNc1ncnc2c1cnn2Cc1ccccc1
-2.7%,Cc1csc(NC(=O)c2cccnc2)n1

Continued:
VDR inh,Molecule
5.5%,CC(C)(C)NC(=O)C(c1ccccn1)N(C(=O)C1CSC(=O)C1)c1ccccc1F (stereo not drawn)
8.0%,Cc1ccc(C(=O)N2CCCCC2)cc1S(=O)(=O)N1CCOCC1
8.6%,N#Cc1ccccc1OCC(=O)Nc1cccc(S(=O)(=O)N2CCCCCC2)c1
10.2%,CCOc1ccc2nc(N(Cc3cccnc3)C(=O)c3ccc4c(c3)OCCO4)sc2c1
-11.7%,CC(C)c1ccc(C2NC(=O)c3n[nH]c(-c4cccs4)c32)cc1 (stereo not drawn)
-1.8%,C[N+](C)(C)C[C@H](O)CC(=O)O
-25.5%,Cc1ccccc1CN1C[C@@H]2C[C@@H](c3cn(C)nc3-c3ccccc3)N3CCC[C@@]23C1=O
-25.0%,CCOC(=O)c1c(S(=O)(=O)N2CCC(C)CC2)c(C)n(C)c1C
-4.4%,CCC(C)NC(=O)CSc1ncccc1C(=O)O (stereo not drawn)
-12.5%,CN(/C(=N/S(=O)(=O)c1ccccc1)c1ccccc1)S(=O)(=O)c1ccccc1

Further results follow.
VDR inh,Molecule
6.4%,COc1ccc(-n2nc(C(=O)NCC(=O)N3CCC(C)CC3)c3ccccc3c2=O)cc1
13.2%&3.9%,CN=C1SC(CC(=O)NCCc2ccc(OC)c(OC)c2)C(=O)N1C (stereo not drawn)
-10.6%,CCC(=O)N1CCc2cc(Br)cc(S(=O)(=O)N3CCN(c4cccc(Cl)c4)CC3)c21
-12.2%,CC(C)(C)CC(C)(C)N=C1NS(=O)(=O)c2cc([N+](=O)[O-])ccc21
-8.8%,Cc1nn(Cc2ccccc2)c(C)c1NC(=O)c1ccc([N+](=O)[O-])cc1[N+](=O)[O-]
12.0%,CCOC(=O)c1c(S(=O)(=O)N2CCCC(C(=O)NCc3ccc(F)cc3)C2)c(C)n(CC)c1C (stereo not drawn)
-6.2%,O=C(Cc1ccc(S(=O)(=O)N2CCOCC2)s1)Nc1ccc(Br)c(C(F)(F)F)c1
1.8%,COc1ccc(C2(C)NC(=O)N(CC(=O)NC3CC3)C2=O)cc1 (stereo not drawn)
-5.4%,COc1ccc(CCNC(=O)CC2SC(=NCc3ccccc3)NC2=O)cc1 (stereo not drawn)
-7.3%,CCOc1ccc(Nc2cc(C)nc(N3CCOCC3)n2)cc1

The listing continues:
VDR inh,Molecule
6.3%,Cc1ccc(OCC(=O)NCCNC(=O)c2ccco2)cc1
3.4%,Cc1cc(C)c2c(c1)OC(O)(C(F)F)CC2=O (stereo not drawn)
-18.1%,O=C(NCCN1CCN(C(=O)c2c(F)cccc2F)CC1)C(=O)Nc1ccc(Cl)cc1
-0.9%,Cc1cc(NC(=O)COc2ccccc2)cc(-c2nc3ccccc3o2)c1O
1.0%,O=C(CC1Nc2ccccc2NC1=O)NCCc1ccccc1 (stereo not drawn)
4.6%,CCOC(=O)c1ccc(CSc2nnc3cc(C)c4ccccc4n23)cc1
-12.8%,COc1ccc(C2NS(=O)(=O)N=C2N)cc1 (stereo not drawn)
-26.7%,Cc1cc(NC(=O)C(C)SCC(=O)O)no1 (stereo not drawn)
u,Cc1ccc(O)c(NC(=S)NC(=O)Cc2ccc(Cl)cc2)c1
10.5%,Cc1c(CNC(C)CCc2ccccc2)c(C(=O)O)c(C)n1Cc1ccc(F)cc1 (stereo not drawn)

The list continues.
VDR inh,Molecule
-5.7%,N#Cc1ccc(/C=N/NC(=S)Nc2ccc(S(=O)(=O)N3CCOCC3)cc2)cc1
13.8%,CCCN1CCc2c(sc(NC(=O)c3ccc(S(=O)(=O)N(C)c4ccccc4)cc3)c2C(N)=O)C1
3.4%,COc1cc(C(=O)NCC2CCCO2)cc(Br)c1OCc1ccccc1 (stereo not drawn)
-11.1%,CCOC(=O)Cc1cc(-c2ccc(F)cc2)nc2ccc3ccccc3c12
-17.4%,CCCCCn1nc(-c2ccccc2)c2nc3ccccc3nc21
-26.9%,N#CC1(NC(=O)COC(=O)c2cc(=O)[nH]c3ccccc23)CCCCC1
-9.2%,CC(CO)NS(=O)(=O)c1ccc(Br)cc1F (stereo not drawn)
0.9%,O=C(CCC1CCN(C(=O)c2cncs2)CC1)Nc1ccccc1
-1.0%,CCOc1ccc(S(=O)(=O)NCCc2csc3nc(-c4ccc(OC)c(OC)c4)nn23)cc1
5.4%,CCc1ccc(CNC(=O)c2cccc(-n3cnc4cccnc43)c2C)cc1

Next part.
VDR inh,Molecule
7.8%,COc1ccccc1CNC(=O)COC(=O)Cc1ccc(F)cc1
-21.0%,COCc1cc(C)n(CC(=O)Nc2cc(C)cc(C)c2)c(=O)c1C#N
1.5%,Cc1ccc(S(=O)(=O)/N=C(/Nc2c(C)n(C)n(-c3ccccc3)c2=O)c2ccccc2)cc1
6.8%,CC1CN(S(=O)(=O)c2cccc(C(=O)NCC(c3cccs3)N3CCOCC3)c2)CC(C)O1 (stereo not drawn)
12.0%,CCOC(=O)N1CCN(C(=O)CS(=O)(=O)c2cn(Cc3ccccc3Cl)c3ccccc23)CC1
-19.7%,S=C(NCCc1ccccc1)N1CCN(C23CC4CC(CC(C4)C2)C3)CC1
3.2%,CC1([N+](=O)[O-])COC2(OC1)C(=O)Nc1ccccc12 (stereo not drawn)
0.5%,CCCCNc1c(-c2ccc(SC(C)CC)c(OC)c2)nc2ccc(Cl)cn12 (stereo not drawn)
-10.7%,Cc1ccnc2nc(C(=O)Nc3nc(-c4ccccn4)cs3)nn12
21.2%,COC(=O)c1c(-c2c(Cl)cccc2Cl)noc1NC(=O)N(C)C
11.3%,Cc1cccc(C)c1OCc1cc(C(=O)N(C)Cc2cc(C3CC3)n[nH]2)no1
-14.1%,CCOc1ccccc1N1CCN(C(=O)c2ccc3[nH]c(C)c(C)c3c2)CC1
-10.7%,CN(CC(=O)Nc1ccc(F)cc1)C(=O)COC(=O)CCN1C(=O)C2CC=CCC2C1=O (stereo not drawn)

Not all compounds are listed (hit frequency here may not be typical).
